VCAM-1 up – boosters of cytokine-driven VCAM-1 levels – cell-based, plate reader, pooled HUVEC, TNFa stimulus (AID 455); HUVEC TNFa-induced VCAM-1 immunofluorescence, plate reader; numbers were filed only for top-ranked candidate wells; augmentation, % at 5 µM; 10,000 compounds, 0.2% hits;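 active = a compound raising TNF-alpha-driven VCAM-1 surface staining, with its hit status upheld on visual or statistical review; inactive = the rest, including hits rejected on review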;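 note: 0% = TNFa with vehicle and 100% = strongest image-checked hit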
26S disassembly – blocks ATP-dependent breakdown of the yeast 26S proteasome; anti-FLAG beads, GFP-proteasome disassembly, flow cytometry; inhibition of disassembly, % (test concentration not listed); 24,000 compounds, 0.2% hits; AID 751;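 active = above 40%; inconclusive = likely self-fluorescent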;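 note: plate controls were ATP control with full disassembly for no effect and ATP-gamma-S intact proteasomes for full effect; higher percent means more bead fluorescence retained so stronger block of disassembly; stock transfer was 100 nL into about 10 µL; wells with too few beads may also be inconclusive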
Starred values were filed as active, the others as inactive; i = inactive; ? = inconclusive; . = no result given. The list is partial. The share of hits here may be higher or lower than overall.

VCAM-1 up,26S disassembly,Structure
i,-0.8,O=S(=O)(c1ccc2c(c1)nc1n2CCC1)N1CCOCC1
i,1.6,CC1CCN(S(=O)(=O)c2ccc(S(=O)(=O)NCC(=O)C(C)(C)C)cc2)CC1
i,-0.5,Cc1ccc(Nc2cc(-n3nc(C)cc3C)ncn2)cc1
i,-2.2,COc1ccc(S(=O)(=O)NCC(=O)N(CC(=O)NCC2CCCO2)c2ccccc2C)cc1 (stereo not given)
i,1.5,C=CCn1c(-c2ccc(OC)cc2)nc2ccccc21
.,-6.5,Cc1oc(-c2cccc(Cl)c2)nc1CN1CCC(C(=O)NCc2cccnc2)CC1
.,-0.1,FC(F)(F)c1cc(-c2ccc3c(c2)OCO3)nc(NCc2ccco2)n1
i,0.4,COc1ccc(OC)c(S(=O)(=O)Nc2ccc(C(N)=O)cc2)c1
i,0.4,Cc1occc1C(=O)N1CCN(c2ncccn2)CC1
.,0.8,O=C1CC(C(=O)Nc2ccccc2C(=O)O)C(c2ccccc2)O1 (stereo not given)
i,3.3,COc1ccc(-c2nc(N)nc(C)c2Oc2ccccc2Br)c(O)c1
.,-0.8,COc1ccc(NC(=O)c2oc3ccccc3c2NC(=O)C2CC2)cc1
i,0.6,C[N+](C)(C)CCOP(=O)([O-])OC[C@H](O)CO
i,0.1,CCc1cccc(NC(=O)Cn2cc3c(n2)CCCC3)c1
.,-1.1,C=CCn1c(CCCNC(=O)CCC)nc2ccccc21
i,-1.1,COc1ccc(C2CC(=O)C(C=NCCN3CCOCC3)=C(O)C2)cc1 (stereo not given)
i,-0.1,O=C(O)c1ccc2c(c1)N(Cc1ccccc1F)C(=O)c1ccccc1S2=O (stereo not given)
i,2.7,COc1ccccc1CNC(=O)C(C)NS(=O)(=O)c1ccccc1 (stereo not given)
i,-1.2,Cc1cccc(C)c1NC(=O)CC(NCc1ccco1)C(=O)O (stereo not given)
.,-0.9,CCCSc1nnc2nc(C)cc(C)n12
i,0.2,COc1cc(NC(=O)c2ccco2)c(OC)cc1NC(=O)CCC(=O)Nc1cc(C)cc(C)c1
.,-0.7,COc1cccc(C2c3c(oc4cc(C)c(C)cc4c3=O)C(=O)N2CCCN(C)C)c1 (stereo not given)
64*,1.2,CCOC(=O)C1=C(c2ccccc2)NC(=O)NC1c1ccc(N(C)C)cc1 (stereo not given)
i,-2.4,CCn1c(SCc2cc(=O)[nH]c3ccccc23)nc2c1c(=O)n(C)c(=O)n2C
.,-0.5,O=C(c1ccc2c(c1)C(=O)N(Cc1ccco1)C2=O)N1CCOCC1

The listing continues.
VCAM-1 up,26S disassembly,Structure
i,-0.1,CSc1ccc2c(c1)N(CCC1CCCCN1C)c1ccccc1S2 (stereo not given)
.,2.0,FC(F)(F)c1cc(-c2ccco2)nc(-n2nc(C(F)(F)F)cc2C2CC2)n1
i,0.0,CC(C)(C)n1nnnc1C(c1ccccc1)N1CCc2ccccc2C1 (stereo not given)
.,2.9,CC1CCCCN1CCNC(=O)C1CC(=O)N(c2ccc(F)c(Cl)c2)C1 (stereo not given)
.,0.7,O=C(Nc1cccnc1)C1(F)C(F)(F)C(F)(F)C(F)(F)C(F)(F)C1(F)F
i,0.8,Cc1ccccc1CN1CCN(C(=O)c2cccc(F)c2)CC1
.,-0.5,COc1ccc(CCNC(=O)C2CCCN(S(=O)(=O)c3cccc4nonc34)C2)cc1OC (stereo not given)
i,-0.3,CCN(CC)CCNC(=O)c1ccc(CS(=O)(=O)c2ccc(Br)cc2)o1
i,-0.2,CN(C)c1ccc(CNn2cnnc2)cc1
i,0.6,COCCN(C(=O)CCC(=O)Nc1ccccn1)C(C(=O)NC1CCCC1)c1ccc(OC)cc1 (stereo not given)
i,-1.1,CC(C)OC(=O)C(CC(=O)O)NCc1ccccc1 (stereo not given)
.,-1.6,CCN(CC)C(=O)c1cc2c(=O)n3cccc(C)c3nc2n1C
.,1.6,Nc1nc(N2CCOCC2)nc(N(c2ccccc2)c2ccccc2)n1
i,-0.6,CC1(C)CC(=O)C(C(=O)CCCCC(=O)C2C(=O)CC(C)(C)CC2=O)C(=O)C1
.,-2.8,CC[n+]1ccc(C)c2cc(S(=O)C(F)(F)F)ccc21 (stereo not given)
.,-0.1,CC1CC(C)CN(CCCNC(=O)c2cn(C)c3ccc(S(=O)(=O)N4CCCC4)cc3c2=O)C1 (stereo not given)
i,-0.6,CN=C(Nc1ccc2c(c1)OCO2)SC1CC(=O)N(c2ccccc2)C1=O (stereo not given)
i,10,Cc1occc1-c1nnc(SCC(=O)N2CCc3ccccc32)o1
.,0.3,CCN1CCCC1CNC(=O)Cn1cc2c(n1)CCC(C)C2 (stereo not given)
i,0.9,O=C(NCCSc1c[nH]c2ccccc12)c1ccco1
.,0.2,CC(=O)N1CSCC1C(=O)N1CCN(c2ccc(N3CCOCC3)nn2)CC1 (stereo not given)
.,-1.0,COc1ccc(CNC(C)C2COc3ccccc3O2)c(OC)c1 (stereo not given)
.,-0.7,COc1ccccc1NC(=O)CSc1nc2ccccc2n1C(C)=O
.,-1.2,Cc1cc2ccccc2c(=O)n1CC(=O)NCC(=O)N1CCN(c2ccccc2)CC1
.,-1.7,O=C1CCCC2=C1C(O)(C(F)(F)F)C(=O)N2Cc1ccccc1 (stereo not given)

Full records, looked up by structure:
Cc1ccccc1CN1CCN(C(=O)c2cccc(F)c2)CC1 is listed as VCAM-1 up: i; 26S disassembly: 0.8
FC(F)(F)c1cc(-c2ccc3c(c2)OCO3)nc(NCc2ccco2)n1 is listed as VCAM-1 up: .; 26S disassembly: -0.1

Additional structures
VCAM-1 up,26S disassembly,Structure
.,1.1,Cc1n[nH]c(C)c1S(=O)(=O)N1CCN(C2CCCCC2)CC1
i,-1.7,Cc1ccc(C)c(N2C(=O)CN=C2Nc2ccccc2Cl)c1
.,-0.8,CCCCN(CCCNC(=O)C1CCN(S(=O)(=O)N2CCOCC2)CC1)Cc1ccccc1
.,2.1,N#CCCN1CCN(S(=O)(=O)c2ccc(C#N)cc2)CC1
.,0.1,CCN(CCCNC(=O)CN(C)S(=O)(=O)c1cccc2nsnc12)c1ccccc1
.,0.4,CCOc1ccc(-n2c(Cc3cc(=O)[nH]c(=O)[nH]3)nnc2SCc2cccnc2)cc1
i,-0.8,CCOC(=O)C1CCCN(S(=O)(=O)c2cccs2)C1 (stereo not given)
.,27,Cc1cccc2sc(NC(=O)C3CCCN(S(=O)(=O)c4cccc5nonc45)C3)nc12 (stereo not given)
.,0.5,O=C(NC1CCCCC1)c1ccc(N2CCCC2=O)cc1
.,1.2,CC(=O)N1c2c(cc(Br)cc2S(=O)(=O)N2CCN(C(=O)c3ccco3)CC2)CC1C (stereo not given)
.,?,CCOc1ccc(NC(=O)C2CCCN(S(=O)(=O)c3c(C)nn(C)c3C)C2)cc1 (stereo not given)
.,-1.5,CCc1ccc(S(=O)(=O)NCCc2cn3ccccc3n2)s1
.,-0.7,COCCNC(=O)c1ccc2c(c1)ncn2-c1ccc(F)c(F)c1
.,-0.3,O=C(Cn1cc2c(n1)CCCC2)NCc1cccnc1
.,-4.5,CCNC(=O)CC1C(=O)N(c2ccc(F)cc2)C(=O)N1Cc1ccc(OC)cc1 (stereo not given)
.,0.5,O=C(NCN1C(=O)C2C3C=CC(C3)C2C1=O)Nc1nncs1 (stereo not given)
i,-0.6,Cc1ccc(-n2nc(-c3cccs3)cc2C(=O)NCC2CCCO2)c(C)c1 (stereo not given)
.,5.4,N=c1n(CCN2CCCCC2)c2ccccc2n1CC(O)COc1ccccc1 (stereo not given)
.,0.6,Cn1cnc2c(sc3nc(N4CCOCC4)c4c(c32)CC(C)(C)OC4)c1=O
.,-0.2,CCCc1nc(N2CCN(C)CC2)c2sc(=S)n(-c3ccccc3)c2n1
i,-1.1,Cc1cc2c(cc1C)C(=O)NC(C)(C)C2
.,1.6,COC(=O)c1nc2n(n1)C(c1cccc(Cl)c1)C1=C(CCCC1=O)N2 (stereo not given)
i,-0.2,CCn1c(SCC(=O)Nc2cc(C)ccc2C)nc2c(c1=O)SC(C)C2 (stereo not given)
i,-0.8,Cn1c(CCNC(=O)c2ccco2)nc2cc(NC(=O)C3CCCCC3)ccc21
.,1.9,O=C(Cn1cnc2c(nnn2Cc2ccccc2F)c1=O)N1CCN(c2ccccc2)CC1

(more compounds)
VCAM-1 up,26S disassembly,Structure
i,-0.3,CC(=O)NCCc1nc2ccccc2[nH]1
i,0.1,COCC(=O)Nc1c(C(=O)Nc2ccccc2OC)oc2ccccc12
i,-1.3,COc1ccc(CNc2nc(NCc3ccc(OC)cc3)n(S(C)(=O)=O)n2)cc1
i,0.6,OC(CCN1CCOCC1)(c1ccc(Cl)cc1)C1CCCCC1 (stereo not given)
.,-1.5,CCS(=O)(=O)N1CCC(C(=O)NCCc2ccc(OC)c(OC)c2)CC1
i,0.4,O=C1CCCC2=C1C(c1cccs1)n1nc(SCc3ccccc3F)nc1N2 (stereo not given)
.,-3.4,O=C(CN1CCOCC1)N1CCN(S(=O)(=O)c2ccccc2)C1c1ccccc1 (stereo not given)
i,-1.5,C=CCn1c(CC#N)nnc1N1CCOCC1
i,3.3,CCSc1oc(-c2ccco2)nc1S(=O)(=O)c1ccccc1
i,0.8,CN1C(C(=O)Nc2ccccn2)=C(O)c2ccccc2S1(=O)=O
i,2.0,COCCCNC(=O)CC(NS(=O)(=O)c1ccc(Cl)cc1)c1ccco1 (stereo not given)
.,-0.6,COc1ccc(-c2noc(CCC(=O)N3CCN(Cc4ccccc4)CC3)n2)cc1
.,1.6,CCOc1ccc(N2C(=O)CSC2c2ccncc2)cc1 (stereo not given)
.,1.3,Nc1nonc1-n1nncc1-c1ccccc1
i,2.4,Clc1ccc(Cl)c(-c2nn3c(Cn4cnc5ccccc54)nnc3s2)c1
i,-0.8,CCSc1nnc(-c2ccc(OC)cc2)o1
.,-0.5,COc1ccccc1-c1cc(C(F)(F)F)nc(S(=O)(=O)CCCC(=O)NC(C)C)n1
.,4.5,CSc1nc2c(c(=O)n1-c1ccc(C)cc1)SCC2
i,2.4,Cc1cccc2cc(CN(Cc3nnnn3Cc3ccccc3)C3CCCC3)c(=O)[nH]c12
.,0.0,CC(=O)Oc1ccc(/C=c2\sc3ncnn3c2=O)cc1
.,1.6,CCN1CCCC1CNC(=O)Cn1cnc2sc(C)c(S(=O)(=O)N3CCC(C)CC3)c2c1=O (stereo not given)
.,-0.7,Cn1c(=O)cc(SCC(=O)NCC2COc3ccccc3O2)c2ccccc21 (stereo not given)
i,1.4,CC(=O)NCC(=O)OC(C)C(=O)Nc1ccc(C(C)=O)cc1 (stereo not given)
.,-1.8,O=C(Cn1cnc2c(oc3ccccc32)c1=O)c1ccccc1
i,1.5,CCOc1ccc(OCC)c2sc(C)nc12

The list goes on:
VCAM-1 up,26S disassembly,Structure
i,0.1,COc1ccc(CN(CC(=O)NCc2ccco2)C(=O)CCC(=O)Nc2nccs2)cc1
i,0.4,O=C(NCc1ccc2c(c1)OCO2)c1ccccn1
i,-1.1,COc1ccc(N2CCN(C(=O)C(OC(C)=O)c3ccccc3)CC2)cc1 (stereo not given)
.,-1.1,N#CCCn1cc(C(CC(=O)c2ccc(Br)cc2)C(=O)O)c2ccccc21 (stereo not given)
.,-0.6,CCOc1ccc2nc(N3CCCC(C(=O)NCCCN4CCOCC4)C3)sc2c1 (stereo not given)
.,-0.7,Cc1cc(C(=O)Nc2c(C)nn(Cc3c(Cl)cccc3Cl)c2C)no1
.,1.3,O=C(C1CCN(S(=O)(=O)c2cccc3cccnc23)CC1)N1CCN(c2ccccn2)CC1
.,1.5,CC1(C)CC(=O)c2cc(OCC(=O)O)ccc2O1
i,0.5,COc1ccc(NC(=O)C(C)Oc2ccc(/C(C)=N\O)cc2)cc1 (stereo not given)
.,0.1,O=C(NCc1ccco1)Nc1cccs1
i,3.5,Cc1ccc(-c2nn(-c3ccccc3)cc2/C=C(\C#N)c2cccc(C#N)c2)o1
i,1.0,CCCNc1nc(N2CCOCC2)nc(N2CCOCC2)n1
.,-1.1,COc1cccc(NC(=O)N2CCN(c3ccc(C(F)(F)F)cn3)CC2)c1
i,2.2,CN(CCCC(=O)Nc1ccncc1)S(=O)(=O)c1ccc(Cl)cc1
i,1.0,C=CCn1c(SCC(=O)NCCCC)nc2scc(-c3ccco3)c2c1=O
i,-7.1,COC(=O)c1ccc(CSc2nnnn2Cc2ccccc2)cc1

Filtered by structure, the entries above with two or more sulfur atoms.
VCAM-1 up,26S disassembly,Structure
i,1.6,CC1CCN(S(=O)(=O)c2ccc(S(=O)(=O)NCC(=O)C(C)(C)C)cc2)CC1
i,-0.1,CSc1ccc2c(c1)N(CCC1CCCCN1C)c1ccccc1S2 (stereo not given)
.,0.1,CCN(CCCNC(=O)CN(C)S(=O)(=O)c1cccc2nsnc12)c1ccccc1
i,-0.8,CCOC(=O)C1CCCN(S(=O)(=O)c2cccs2)C1 (stereo not given)
.,27,Cc1cccc2sc(NC(=O)C3CCCN(S(=O)(=O)c4cccc5nonc45)C3)nc12 (stereo not given)
.,-1.5,CCc1ccc(S(=O)(=O)NCCc2cn3ccccc3n2)s1
.,-0.2,CCCc1nc(N2CCN(C)CC2)c2sc(=S)n(-c3ccccc3)c2n1
i,-0.2,CCn1c(SCC(=O)Nc2cc(C)ccc2C)nc2c(c1=O)SC(C)C2 (stereo not given)
i,0.4,O=C1CCCC2=C1C(c1cccs1)n1nc(SCc3ccccc3F)nc1N2 (stereo not given)
i,3.3,CCSc1oc(-c2ccco2)nc1S(=O)(=O)c1ccccc1
.,4.5,CSc1nc2c(c(=O)n1-c1ccc(C)cc1)SCC2
.,1.6,CCN1CCCC1CNC(=O)Cn1cnc2sc(C)c(S(=O)(=O)N3CCC(C)CC3)c2c1=O (stereo not given)
i,1.0,C=CCn1c(SCC(=O)NCCCC)nc2scc(-c3ccco3)c2c1=O
